Source: PubChem BioAssay
YopH inh = inhibitors of Yersinia enterocolitica YopH tyrosine phosphatase. AID 898. fluorescence Ex485/Em525. inhibition, %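 (about 10 µM by stock and volumes)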. 0.16% of 140,000 active;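 active means inhibition of 50% or more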;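 further: controls were vehicle for no effect and minimum signal wells for full effect; inactives centre near -20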
Arbovirus inh = blocks arbovirus infection; 0.37% of 200,000 active; inhibition, % at 10 µM; arbovirus infection cell-based antiviral screen; AID 1251;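 active means inhibition from about 30%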;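 further: bluetongue infection of BSR cells; cell survival read as ATP light after 72 h; 0% = infected wells without compound and 100% = uninfected wells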
RecA splice inh = inhibitors of M. tuberculosis RecA intein splicing; P9WHJ3; cell-free RecA intein splicing, fluorescence; inhibition, %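 (about 9 µM by stock and volumes)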; 0.75% of 290,000 active; in the data active means inhibition above about 30%; inconclusive means no clear call, values can overlap the other calls;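 further: 0% = vehicle wells and 100% = reference inhibitor control wells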
Target sequence (P9WHJ3 whole entry, looked up, canonical isoform): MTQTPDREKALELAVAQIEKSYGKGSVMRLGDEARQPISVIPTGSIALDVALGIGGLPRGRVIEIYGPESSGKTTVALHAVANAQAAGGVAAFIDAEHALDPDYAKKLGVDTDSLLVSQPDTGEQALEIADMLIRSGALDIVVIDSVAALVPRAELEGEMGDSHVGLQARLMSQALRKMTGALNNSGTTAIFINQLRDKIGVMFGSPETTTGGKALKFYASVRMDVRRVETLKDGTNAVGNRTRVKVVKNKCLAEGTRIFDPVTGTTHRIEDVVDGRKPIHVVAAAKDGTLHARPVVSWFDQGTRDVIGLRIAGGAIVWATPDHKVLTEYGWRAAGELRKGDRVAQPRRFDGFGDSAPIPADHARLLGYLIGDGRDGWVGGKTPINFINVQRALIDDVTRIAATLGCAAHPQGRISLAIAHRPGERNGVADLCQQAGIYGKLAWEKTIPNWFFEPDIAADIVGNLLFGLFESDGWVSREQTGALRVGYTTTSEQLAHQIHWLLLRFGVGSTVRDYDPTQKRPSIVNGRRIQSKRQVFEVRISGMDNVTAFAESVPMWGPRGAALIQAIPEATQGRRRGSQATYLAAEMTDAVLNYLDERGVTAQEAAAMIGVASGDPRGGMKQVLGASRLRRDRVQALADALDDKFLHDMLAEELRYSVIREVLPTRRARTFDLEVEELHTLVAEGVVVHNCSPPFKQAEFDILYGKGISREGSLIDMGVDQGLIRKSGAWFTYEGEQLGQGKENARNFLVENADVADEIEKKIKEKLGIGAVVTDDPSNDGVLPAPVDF
Mtb H37Rv = M. tuberculosis H37Rv growth inhibitors, H37Rv strain (AID 1626); M. tuberculosis H37Rv growth inhibition; higher % means a stronger effect; inhibition, % at 10 µM; hits with a dose series show IC50 in µM; 0.95% of 220,000 active;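 active means confirmed in a dose series; inconclusive means inhibition above 80% but not taken into the dose series; inactive means below 80% or under 30% at every dose of the series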;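 further: bacteria incubated seven days before Alamar blue readout; 0% = bacteria only wells and 100% = bacteria with antibiotic wells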
Mtb betalactam = beta-lactam sensitization of Mtb H37Rv | M. tuberculosis H37Rv growth with meropenem, percent inhibition; hits of this screen are not shown here | inhibition, % at 25 µM | 0.27% of 330,000 active | AID 434955;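 active means about 74% or more and at least 40 points above the plate without the antibiotic, then above 30% in a dose series; inconclusive means first-round hits that could not be retested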;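 further: growth measured after seven days incubation then overnight dye step; 0% = bacteria only wells and 100% = bacteria with antibiotic; twin plates without the antibiotic show which effects depend on it; some results filed as inactive read as strong as hits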
Arbovirus inh repeat = second read-out of Arbovirus inh, no call of its own (marks repeat the call); inhibition, %; measured here: 10K subset replicate screen; many hits read low in the repeat;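 first of two repeat runs on a subset; 0% = infected and 100% = uninfected wells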
The depositor's hits bear a star; ? = inconclusive; · = no result given. A portion of the library; count on the stated rates, not on these rows.

Start of the listing, in advance:
SMILES	YopH inh	Arbovirus inh	RecA splice inh	Mtb H37Rv	Mtb betalactam	others
NC(=O)c1ccc(SCC(=O)OCC(=O)N2CCCC2=O)c([N+](=O)[O-])c1	·	·	-3.8	·	-6
COc1ccc(CNS(=O)(=O)NCc2ccc(OC)c(OC)c2)cc1	·	10	-5.0	·	3
CNc1nc(CCN2C(=O)c3ccccc3C2=O)cs1	-21	-3	-2.4	-7%	5
Cc1ccc(C2Nc3ccccc3-c3nc4ccccc4n32)o1 (stereo not drawn)	-34	3	-7.2	12%	-5
CCOC(=O)C1CCN(C(=O)CSc2ccccc2Cl)CC1	·	3	1.8	-2%	-3
Nc1cc2c([N+](=O)[O-])cccc2o1	-14	3	-0.6	0%	-1

Main list, previewed entries included:
SMILES	YopH inh	Arbovirus inh	RecA splice inh	Mtb H37Rv	Mtb betalactam	others
NC(=O)c1ccc(SCC(=O)OCC(=O)N2CCCC2=O)c([N+](=O)[O-])c1	·	·	-3.8	·	-6
COc1ccc(CNS(=O)(=O)NCc2ccc(OC)c(OC)c2)cc1	·	10	-5.0	·	3
CNc1nc(CCN2C(=O)c3ccccc3C2=O)cs1	-21	-3	-2.4	-7%	5
Cc1ccc(C2Nc3ccccc3-c3nc4ccccc4n32)o1 (stereo not drawn)	-34	3	-7.2	12%	-5
CCOC(=O)C1CCN(C(=O)CSc2ccccc2Cl)CC1	·	3	1.8	-2%	-3
Nc1cc2c([N+](=O)[O-])cccc2o1	-14	3	-0.6	0%	-1
O=C(COc1ccc2ccc(=O)oc2c1)NC(Cc1ccc(Cl)cc1)C(=O)O (stereo not drawn)	·	·	-1.0	·	-2
Cc1cccc(S(=O)(=O)c2c(C)cc(C)[nH]c2=O)c1	·	·	-2.2	·	1
c1ccc(CCn2c(C3CC3)nc3ccccc32)cc1	-1	5	4.2	-4%	10
CC1CCc2nc3ccc(S(=O)(=O)N4CCC(C(=O)N5CCCCC5)CC4)cc3c(C(=O)O)c2C1 (stereo not drawn)	-36	2	-2.0	-7%	-4
CCC1CCCCN1CCCNC(=O)c1c(O)nc2ccccn2c1=O (stereo not drawn)	·	·	2.1	·	3
C#CCSc1nncn1C(=O)/C=C/c1ccccc1	-29	0	5.3	-4%	-1
COc1ccc(CN(C(=O)c2ccco2)C2CCS(=O)(=O)C2)cc1 (stereo not drawn)	·	·	1.4	·	-2
CCOCCNC(=O)c1ccccc1C(=O)NCCOCC	-38	5	·	-1%	5
Cc1c(NC(=S)NC(=O)c2ccccc2Br)c(=O)n(-c2ccccc2)n1C	·	·	-1.7	·	?
COc1cccc(-n2c([S-])c(C(=O)Nc3ccc(C(F)(F)F)cc3)[n+]3ccccc23)c1	·	6	0.6	1%	-1
CCN1CCN(C(=O)CSc2ccc(C)cc2)CC1	·	·	-1.9	·	-6
CCCc1c(C)c2cccc(C)c2[nH]c1=O	-42	9	-1.0	-5%	1
CC(C)c1onc(C(=O)Nc2sc3c(c2C#N)CCC3)c1[N+](=O)[O-]	·	7	1.6	3%	-1
Cc1cccc(NC(=O)c2cnc3ccccn3c2=O)c1	-31	2	·	9%	·
CN(CC(=O)Nc1ccc(F)cc1)C(=O)CSc1nc2ncc(Cl)cc2[nH]1	·	4	-0.2	4%	-2
O=C(Nc1ccc(N2C(=O)C3C4C=CC(C4)C3C2=O)cc1)Nc1nnc(C(F)(F)F)s1 (stereo not drawn)	-28	8	-0.7	-6%	-1
COc1ccccc1-n1cnnc1SCC(=O)Nc1ccccc1	·	·	0.0	·	0
NCCCC[C@H](NC(=O)C1CCNCC1)c1nnc([C@@H](N)Cc2ccc(O)cc2)o1	·	8	-1.1	-10%	-17
COc1cccc(C(=O)Cn2c(=N)n(C)c3ccccc32)c1	-11	3	0.2	6%	47
(continued)
SMILES	YopH inh	Arbovirus inh	RecA splice inh	Mtb H37Rv	Mtb betalactam	others
CCc1cccc(C)c1N(C(=O)Cn1c(COC)nc2ccccc21)C(C)COC (stereo not drawn)	-3	-4	1.8	0%	-2
CC(=O)Oc1ccc(C2=NN(c3ccccc3)C(c3ccccc3)C2)cc1 (stereo not drawn)	·	·	-7.2	·	15
Cc1ccc2c(c1)c1nnc(SCC(=O)N3CCN(c4ccc(F)cc4)CC3)nc1n2CC(=O)O	-16	5	-1.2	·	-1
CC(C)=CCN1CCN(Cc2cc3ccccc3[nH]2)CC1CCO (stereo not drawn)	·	·	2.5	·	6
CC(=O)Nc1ccc(NC(=O)C2CC(=O)N(c3cccc(C)c3C)C2)cc1 (stereo not drawn)	-12	2	0.4	-17%	6	Arbovirus inh repeat=1
OCCCNC(=S)Nc1ccc(Br)cc1Cl	·	·	0.6	-14%	-10
O=C(CN1CCN(c2ccccn2)CC1)Nc1ccc(F)cc1F	·	·	-3.7	·	-5
O=C1c2cccnc2C(=O)N1Cc1ccc(S(=O)(=O)NCc2ccco2)cc1	·	·	-3.4	·	-3
NC1=NC(c2ccccc2C(F)(F)F)N(c2ccc(F)c(Cl)c2)C(N)=N1 (stereo not drawn)	·	·	-0.8	·	11
COc1cccc(S(=O)(=O)Nc2ccc(C(=O)NCc3ccco3)cc2)c1	-3	0	0.8	3%	-3
CCc1c(C)nc2ncnn2c1NCCc1ccccc1	-21	8	-6.0	0%	-5
O=C(N/N=C1\CCCc2ccccc21)c1cccc(Br)c1	·	-4	5.0	-11%	20
O=C(Cc1ccccc1)NCCS(=O)(=O)N1CCN(c2ccccc2)CC1	·	·	-0.5	·	0
Cc1ccc(C(=O)NC(=S)N(C)Cc2ccccc2)cc1	·	·	0.9	·	61
O=C(Cc1ccccc1)NNC(=O)c1cnccn1	-29	-24	-3.3	-11%	-3
Cc1csc(NC(=O)CSc2[nH]c(=O)ncc2C)n1	·	·	1.6	·	-5
CCOC(=O)c1ccc(NC(=O)C(C)Sc2nc(O)c(-c3ccccc3)c(=O)[nH]2)cc1 (stereo not drawn)	·	2	-0.1	?	-4
COc1ccc(C2=NCC(=O)N(CC(=O)NCc3ccco3)c3sc4c(c32)CCCC4)cc1OC	-52	5	-1.4	6%	6
CCOc1ccc2nc(NC(=O)NC3CCCCC3)sc2c1	·	-5	2.2	-7%	6
CC(=O)c1cc(CN2CCN(CCC(C)C)C(CCO)C2)cs1 (stereo not drawn)	·	·	-3.9	2%	-1
CCOc1cc(/C=C2/C(=O)NN(c3cccc(Cl)c3)C2=O)ccc1O	·	·	1.7	·	-5
O=C(Cc1ccccc1[N+](=O)[O-])NCc1ccco1	·	8	-0.5	-10%	-7
CSCc1nnc(NC(=O)c2ccc(S(=O)(=O)N(C)C)cc2)o1	·	11	-2.3	-2%	-4
Cc1cc(N/C(=N\S(=O)(=O)c2ccc(F)cc2F)c2ccccc2)no1	-29	-2	-2.4	·	-2
COc1ccc(CCNC(=O)C(=O)NCC2CCCN2S(=O)(=O)c2cc(C)ccc2C)cc1 (stereo not drawn)	·	·	1.8	·	5
(continued)
SMILES	YopH inh	Arbovirus inh	RecA splice inh	Mtb H37Rv	Mtb betalactam	others
CCC(=O)NC1=C(C#N)C2(CCCC2)Cc2ccccc21	-43	-4	1.3	1%	3
COc1cc(/C=N/NC(=O)c2cccc3ccccc23)cc(OC)c1OC	·	·	-3.4	·	1
COc1ccc(NC2=CC(c3ccc(OC)cc3)N(c3ccc(OC)cc3)C2=O)cc1 (stereo not drawn)	·	-7	-3.9	>100µM*	61
CC(C)C[C@H](NC(=O)c1nc[nH]c1C(=O)N1CCc2ccccc2C1)C(=O)OC(C)(C)C	·	·	4.0	-5%	8
O=C(O)CCn1cc(/C=C/C(=O)c2ccc(Cl)cc2)c(-c2cccc(Br)c2)n1	·	·	6.2	6%	19
O=C1/C(=C/N(C(=O)c2ccco2)c2ccc(Cl)cc2)Sc2ccccc21	-63	-12	-3.2	5%	3
CC(=O)N1CCN(C(=S)c2ccc(-c3ccc(Cl)cc3)o2)CC1	-36	-3	4.9	5%	7
CC(=O)Nc1nnc(SCc2ccc(F)cc2)s1	-13	1	0.5	1%	4
Cc1ccc(N2CC(C(=O)Nc3ccccc3C(=O)NC3CCCCC3)CC2=O)cc1C (stereo not drawn)	28	·	-1.1	0%	-8
COc1cc(C2NC(=O)NC(O)(C(F)(F)F)C2C(C)=O)cc(OC)c1OC (stereo not drawn)	-8	5	-3.0	·	-4
CCOc1ccc(CCNC(=O)COC(=O)c2cccc(S(=O)(=O)N3CCOCC3)c2)cc1OCC	·	·	-2.9	·	-10
COc1cc(OC)cc(-c2cc3nc(C)c(CCC(=O)NCc4ccccc4)c(C)n3n2)c1	·	·	2.6	15%	84
CCc1cc(C(=O)Cc2ccc(F)cc2)c(O)cc1O	-11	2	5.7	6%	13	Arbovirus inh repeat=8
CCc1ccc(CN2CCC(n3nccc3NC(=O)c3ccc4c(c3)OCO4)CC2)cc1	·	·	2.1	·	12
COC(=O)COc1cccc2c(=O)n(CC(=O)NCCc3ccc(OC)c(OC)c3)ccc12	-31	-2	2.5	4%	-6
O=C(CSc1nnc(CNC(=O)c2ccccc2)o1)NCCc1ccccc1	·	·	2.4	·	?
COc1ccc(-c2nnc(SC)n2C)cc1	-36	3	1.5	-3%	-4
COc1ccccc1/C=C/C(=O)N1CCc2cc(OC)c(OC)cc2C1C (stereo not drawn)	·	·	0.2	·	1
O=C1CC(N(CCc2ccccc2)C(=S)Nc2ccccc2)C(=O)N1c1ccc(Br)cc1 (stereo not drawn)	-6	-35	6.9	19%	16
CC1CCN(c2nc3ccccc3nc2C(C#N)C(=O)NC2CCCCC2)CC1 (stereo not drawn)	·	·	-14	7%	-3
CCCn1c(N)c(N2CCCCC2)c(=O)n(CC(=O)Nc2ccc(OC(F)(F)F)cc2)c1=O	-13	-3	-2.0	-12%	-4
CCn1c(SCC(=O)Nc2cccc(NC(C)=O)c2)nc2c([nH]c3ccccc32)c1=O	·	·	-0.7	·	?
Cc1ccc(OCC(=O)Nc2ccc(CN3CCCCC3)cc2)c(C)c1	·	11	-1.2	2%	5
CCOC(=O)Cc1cnc(N)s1	·	-7	1.3	1%	-9
COc1cc(Cl)c(CN2CCC(CCC(=O)NC3CC3)CC2)cc1OC	·	·	-0.8	·	-2

Five records picked at random from the list so far, as already listed:
SMILES	YopH inh	Arbovirus inh	RecA splice inh	Mtb H37Rv	Mtb betalactam	others
CC(C)C[C@H](NC(=O)c1nc[nH]c1C(=O)N1CCc2ccccc2C1)C(=O)OC(C)(C)C	·	·	4.0	-5%	8
O=C1CC(N(CCc2ccccc2)C(=S)Nc2ccccc2)C(=O)N1c1ccc(Br)cc1 (stereo not drawn)	-6	-35	6.9	19%	16
COc1ccc(NC2=CC(c3ccc(OC)cc3)N(c3ccc(OC)cc3)C2=O)cc1 (stereo not drawn)	·	-7	-3.9	>100µM*	61
CC(=O)N1CCN(C(=S)c2ccc(-c3ccc(Cl)cc3)o2)CC1	-36	-3	4.9	5%	7
COc1cc(OC)cc(-c2cc3nc(C)c(CCC(=O)NCc4ccccc4)c(C)n3n2)c1	·	·	2.6	15%	84

The listing continues:
SMILES	YopH inh	Arbovirus inh	RecA splice inh	Mtb H37Rv	Mtb betalactam	others
O=C(Nc1ccccc1F)Nc1ccccc1Br	·	16	-2.3	8%	5
CC1CCCN(C(=O)CCl)C1 (stereo not drawn)	-18	-3	·	-6%	91
S=C(NCc1ccc(Cl)cc1)NC1CCN(Cc2ccccc2)CC1	·	-30	3.1	6%	5
CC(C)N(C(=O)/C=C/c1cccc([N+](=O)[O-])c1)C(C)C	·	5	0.1	-7%	0
CCOc1nc(C)ccc1-c1noc(C)n1	-33	0	0.9	-4%	1
Cc1ccc(N2C(=O)C3CCC(C)(C2=O)C3(C)C)cc1C (stereo not drawn)	·	2	-0.7	0%	8
COc1ccccc1NC(=O)CSc1nnc(COc2ccccc2OC)n1C	·	10	0.1	-7%	-7
CCC(=O)c1ccc(OCC(=O)Nc2ccccc2C(=O)N2CCCCC2)cc1	·	·	1.6	·	-3
O=C1N(Cc2cccc(Cl)c2)C[C@@H]2C[C@@H](c3cccc4cccnc34)N3CCC[C@@]123	·	0	2.7	3%	1
CCOc1ccc(S(=O)(=O)NCCC(=O)NCc2ccco2)cc1	3	4	0.6	0%	-2
CCOC(=O)c1ccccc1NC(=S)N1CCN(C(=O)c2ccco2)CC1	·	·	0.2	·	6
COc1cccc2cc(-c3ccccc3)oc12	·	·	1.4	·	-14
O=C1Nc2ccc(NS(=O)(=O)c3cccs3)c3cccc1c23	-21	-14	·	·	4
O=c1[nH]c(=S)[nH]c2nc(-c3ccccc3)cnc12	·	·	-4.3	·	33
O=C(NCc1cccnc1)c1cc(S(=O)(=O)N2CCCCC2)ccc1Cl	-27	9	-1.6	-8%	2
